VACV Venus inh: inhibitors of vaccinia virus (Venus reporter) | Potency, µM (series often up to 36.5 µM), without a hit: at the highest dose activity change, negative = inhibition, hits mostly inhibitors | 0.46% of 330,000 active | Vaccinia virus Venus reporter expression, fluorescence; active means well fitted inhibition curve with a large enough effect; inconclusive means small, poorly fitted or top-dose-only effect; inactive means no such curve, though single readings can be large or run the other way; tested in A549 cells; note: nearly all actives have a fitted effect of over 30% in size; inactives centre near -10
Vaccinia mCherry: vaccinia inhibition (mCherry reporter). Vaccinia virus mCherry reporter infection, fluorescence; about a quarter of the inactives have no number. Potency, µM (top dose mostly 36.5 µM), inactives show at the highest dose activity change, negative = inhibition, most hits filed as inhibitors. 0.63% of 310,000 active; active = well fitted inhibition curve with a large enough effect; inconclusive = small, poorly fitted or top-dose-only effect; inactive = no such curve, though single readings can be large or run the other way; tested in A549 cells; note: nearly all actives have a fitted effect of over 35% in size; inactives centre near -10
An asterisk follows results filed as active; i = inactive; ? = inconclusive; nt = not tested or not shown; & = joins results of further samples; [ ] = another dose, or the depositor's remark. % is set by controls: 0 for no effect and ±100 for the full control effect; potency is the fitted concentration of half-maximal effect.

| smiles | Vaccinia mCherry | VACV Venus inh |
| --- | --- | --- |
| Cc1ccc(S(=O)(=O)N2C[C@H]3[C@H]4C(=O)N(c5ccccc5)C(=O)[C@H]4C[C@H](OC(=O)NCC4CCCCC4)[C@@]3(O)C2)cc1 | -10% | -13% |
| CC[n+]1c(/C=C/C=C/c2ccc(N(C)C)cc2)sc2ccccc21 | ? | ? |
| c1ccc(NC2=NCCN2CCCC2CCCC2)cc1 | -4% | -11% |
| COc1ccc(C2=NOC(COc3ccc4c(C)cc(=O)oc4c3)C2)c(OC)c1 (stereo not given) | ? | ? |
| CCCCC1=NN(C(=O)c2cccnc2)C(O)(C(F)(F)F)C1 (stereo not given) | i | -7% |
| COc1ccc2[nH]c(=O)c(CN(c3ccccc3OC)S(=O)(=O)c3ccccc3)cc2c1 | -9% | -30% |
| COc1ccccc1CN(CC(=O)NCc1ccc2c(c1)OCO2)C(=O)c1ccc2c(c1)OCCO2 | -27% | -18% |
| Cc1nn(Cc2ccccc2Cl)c(C)c1C(=O)NCc1ccco1 | i | -20% |
| CCCCOc1ccccc1NC(=O)CC1Nc2ccccc2NC1=O (stereo not given) | -7% | -7% |
| S=C(CSc1ccccc1)Nc1cccc2ccccc12 | 0% | -10% |
| COc1cccc(C(=O)O/N=C2\CCS(=O)(=O)c3sccc32)c1 | -11% | 1% |
| COc1ccc(C2=C(C)C(=O)N(Cc3ccc(C(=O)NCc4ccccc4C)cc3)S2(=O)=O)cc1 | -11% | -16% |
| O=C(CN1C(=O)COc2ccc(Cl)cc21)Nc1ccc2c(c1)OCCO2 | i | -18% |
| CC1(C)CC(NC(=O)c2cccc(S(=O)(=O)N(Cc3ccccc3)c3ccccc3)c2)CC(C)(C)N1 | -21% | ? |
| CCOc1ccc(CCNC(=O)COC(=O)c2ccc(S(C)(=O)=O)cc2)cc1OCC | -15% | -14% |
| COc1ccc(-n2cc(-c3ccc4c(c3)OCO4)n(CC(=O)Nc3cccc(C)c3C)c2=O)c(OC)c1 | -17% | -14% |
| COc1ccc(/C=C/C(=O)NC(C)CCc2ccccc2)cc1 (stereo not given) | -20% | -4% |
| O=S(=O)(/C=C/c1ccccc1)Nc1ccc(F)cc1 | -14% | -12% |
| CC(=O)c1ccc(Nc2c(C)n(C)n(-c3ccccc3)c2=O)cc1 | -10% | -11% |
| CCOC(=O)[C@]12Cc3cc(OC)c(OC)cc3[C@H]1N(Cc1ccccc1)C(=O)c1ccccc12 | -7% | -23%&-16% |
| Cc1cscc1-c1nc(NCC2CC2)nc2ccsc12 | 20% | -5% |
| CCOC(=O)C(=CNc1cc(OC)ccc1-n1cccc1)C(=O)OCC | -2%[7.34 µM] | -5%[7.34 µM] |
| Cc1ccn2c(=O)nc(SCC(=O)N3CCCCC3)nc2c1 | -13% | -13% |
| Cc1cccc(N/C=C/c2onc(C)c2[N+](=O)[O-])c1 | -12%[1.46 µM] | 5% |
| COC(C/C=C\[C@@H](O)[C@@H](C)OCc1ccccc1)OC | -27% | -10% |
| COC(=O)c1cccn(CC(=O)c2ccc(Cl)cc2Cl)c1=O | -7% | -7% |
| Cc1ccn2cc(CCNC(=O)c3ccc(Br)o3)nc2c1 | 11% | -7% |
| Cc1oc(C)c(C(N)=O)c1C(N)=O | nt | -11% |
| Cc1cc(C)nc(N/N=C/c2cc(Br)ccc2O)n1 | ? | -22% |
| O=C(c1ccc([N+](=O)[O-])c(CS(=O)(=O)c2ccc(Cl)cc2)c1)N1CCCC1 | i | -10% |
| CCCCC(=O)Nc1ccc2c(c1)OCCO2 | -6% | 2% |
| S=C1CN=C(c2ccccc2Cl)c2cc(Cl)ccc2N1 | -13% | -7% |
| COc1ccc(NC(=O)Cn2c(=O)c3ccccc3n3nncc23)c(OC)c1 | 5% | 3% |
| O=c1[nH]c2ccccc2cc1CN(Cc1ccco1)S(=O)(=O)c1ccccc1 | i | -19% |
| CC(C)(C)NC(=O)Nc1nnc(SCC(=O)NC2CCCCC2)s1 | -8% | -18% |
| O=C1Nc2ccccc2-n2nnnc2C1N1CCN(c2ccc(C(F)(F)F)cn2)CC1 (stereo not given) | -5% | -8% |
| COc1ccccc1CNC(=O)C1CC2Cn3c(nc4ccccc43)C2N1C (stereo not given) | -8% | -10% |
| Cc1nn2c(=O)cc(COc3ccc(/C=C(\C#N)C(=O)Nc4ccc(F)cc4)cc3)nc2s1 | -1% | 9% |
| COc1ccc(C(=O)Nc2ccc(OC)c([N+](=O)[O-])c2)cc1Br | -6% | ? |
| CC1(C)CC(=O)c2cc(O)ccc2O1 | -2% | -3% |
| COc1ccc2c(=O)c3c(=O)n(CCc4ccccc4)c(C(C)C)nc3oc2c1 | i | -14% |
| CC(=O)c1c(C)oc2ccc(NS(=O)(=O)c3ccc(C)cc3)cc12 | -19% | -6% |
| CCOc1ccc(NC(=O)c2cc3cc4ccc(C)cc4nc3o2)cc1 | -2% | 0% |
| Cc1ccccc1NCCNc1ccccc1C | i | -12% |
| CC(=O)Nc1ccc(NC(=O)C2CCCN(S(=O)(=O)c3ccc4c(c3)CCCC(=O)N4)C2)cc1 (stereo not given) | 1% | -3% |
| O=C(Nc1nc(-c2ccccc2)cs1)c1ccco1 | i | -8% |
| Oc1c(C=Nc2ccccc2)sc2ccccc12 | ? | -11% |
| O=C(O)CSc1nnc(COc2ccc(Br)cc2)n1-c1ccccc1 | i | -10% |
| Cc1ccc(S(=O)(=O)NC(C)C(=O)NC(C)c2cccs2)cc1 (stereo not given) | -6% | -1% |
| O=C(c1ccc(Cl)cc1)N1CCN=C1c1ccccc1 | -15% | -7% |
| CCOC(=O)N1CCN(C(=O)Cn2ncn3nc(-c4cccs4)cc3c2=O)CC1 | nt | -5% |
| CS(=O)(=O)N(CC(N)=O)c1ccc(F)c(Cl)c1 | -13% | 6% |
| COCCn1nnnc1CN(CCc1ccc(OC)c(OC)c1)Cc1cc2ccc(C)cc2[nH]c1=O | -14%[1.46 µM] | -7% |
| C#CCOCCOCCOCCNc1nc(N2CCN(C(=O)[C@H]([C@@H](C)O)n3cc(CCCCN)nn3)CC2)nc(N2CCN(C(=O)[C@H]([C@@H](C)CC)n3cc(CCCCN)nn3)CC2)n1 | 3% | -9% |
| CC(=O)NC(c1cccc(F)c1)c1nc(-c2cccs2)cs1 (stereo not given) | 1% | -17% |
| COC(=O)c1cccc(C(=O)N2CCC(CO)(Cc3ccccc3Cl)CC2)c1 | -8% | -6% |
| CCn1nc(C)c(CNC(=O)Nc2ccccc2C(=O)OC)c1C | -7% | -9% |
| CCCCC1(COC(=O)CCC(=O)O)C(=O)N(c2ccccc2)N(c2ccccc2)C1=O | 0% | -15%&-3% |
| CC(C)CNC(=O)C1(N2C(=O)c3ccccc3C2=O)CCCC1 | -10% | -10% |
| COc1ccc(CNC(=O)c2ccc(C(C)(C)C)cc2)cc1 | 6% | 2% |

Continued.
| smiles | Vaccinia mCherry | VACV Venus inh |
| --- | --- | --- |
| O=C(CSc1nnc2ccc(-c3ccccn3)nn12)Nc1cccc(F)c1 | i | -20% |
| Cc1cc(=O)oc2cc(OCC(=O)N3c4ccccc4NC(=O)C3(C)C)ccc12 | -12% | -8% |
| CCNC(=O)NC(=O)C(C)OC(=O)c1cc(S(=O)(=O)N2CCCCCC2)ccc1OC (stereo not given) | -30% | -25% |
| COc1ccccc1C=C1CCc2ccccc2C1=O | 34%[activator] | -2% |
| Cc1c(NC(=O)C(C)Oc2ccc(Br)cc2Cl)c(=O)n(-c2ccccc2)n1C (stereo not given) | -4% | -18% |
| CC1CCc2c(sc3nc(C4CC4)nc(N4CCN(C(=O)c5ccco5)CC4)c23)C1 (stereo not given) | 14µM* | ? |
| Cc1csc2nc(COC(=O)c3ccccc3NC(=O)c3ccc(F)cc3)cc(=O)n12 | ? | ? |
| COc1c(C)cccc1C(=O)Nc1cc(Cl)ccc1N1CCOCC1 | nt | -29% |
| O=C(NCCc1cn[nH]c1)c1ccc2oc(CCc3ccccc3)nc2c1 | i | -17% |
| CC(C)(C)C(=O)Nc1ccccc1N1CCN(c2ccc(F)cc2)CC1 | 4% | -24% |
| Cc1csc(NC(=O)Cc2c[nH]c3ccccc23)n1 | nt | -18% |
| Cc1cnc(CNC(=O)c2csc([C@@H]3O[C@H](CO)[C@H](O)[C@H](O)[C@H]3O)n2)cn1 | 6% | -4% |

Sorted by SMILES length (largest number first): part of the list above.
| smiles | Vaccinia mCherry | VACV Venus inh |
| --- | --- | --- |
| Cc1csc2nc(COC(=O)c3ccccc3NC(=O)c3ccc(F)cc3)cc(=O)n12 | ? | ? |
| Cc1c(NC(=O)C(C)Oc2ccc(Br)cc2Cl)c(=O)n(-c2ccccc2)n1C (stereo not given) | -4% | -18% |
| O=C(NCCc1cn[nH]c1)c1ccc2oc(CCc3ccccc3)nc2c1 | i | -17% |
| Cc1csc(NC(=O)Cc2c[nH]c3ccccc23)n1 | nt | -18% |

(further entries)
| smiles | Vaccinia mCherry | VACV Venus inh |
| --- | --- | --- |
| Cn1nnc(NC(=O)COc2ccc(C3CCCCC3)cc2)n1 | -10% | -8% |
| CC(=O)NC(=S)Nc1cccc2ccc(C)nc12 | -14% | -4% |
| Cc1cc(F)ccc1NC(=O)CCS(=O)(=O)c1ccc2c(c1)CC(C)N2C(=O)C1CC1 (stereo not given) | -12% | -17% |
| COc1ccc(Oc2coc3c(CN(C)C)c(O)ccc3c2=O)cc1 | -10% | -8% |
| O=C(Cc1ccc(F)cc1)NCc1nc2cccnc2n1Cc1ccc(F)cc1 | -12% | 0% |
| C(=NOCc1ccccc1)c1ccccn1 | -13% | -6% |
| O=C(NC1CCCCC1)c1nc(C2CCNCC2)oc1-c1ccccc1 | i | -2% |
| COC(=O)c1cc(S(=O)(=O)Nc2cccc(S(N)(=O)=O)c2)oc1C | i | -6% |
| CCCCCCCCCCCCCC(=O)NO | -27% | -9% |
| Cn1cccc1/C=N/N1CCN(Cc2ccc(Cl)cc2)CC1 | -28% | -18% |
| O=C(O)c1ccc(N2CCS(=O)(=O)CC2)cc1 | i | -2% |
| Cc1ccc(NC(=O)CSc2nnc(C)s2)c(C)c1 | -10% | 0% |
| COc1ccc(N(CC(=O)N2CCN(Cc3ccccc3)CC2)S(=O)(=O)c2ccccc2)cc1 | -18% | -12% |
| C#CCN(Cc1ccco1)C(=O)c1cc(COc2ccc(F)cc2Cl)on1 | -9% | -3% |
| O=C1NC(=NCc2ccccc2)S/C1=C/c1ccc(O)cc1 | ? | ? |
| O=C(NCCc1ccccc1)C(c1ccccc1F)N(C(=O)c1csnn1)C1CC1 (stereo not given) | -9% | -1% |
| Fc1ccc2[nH]c(-c3cccs3)cc2c1 | -11% | -11% |
| COc1ccc(/C=N/NC(=O)CN2CCCCCCC2)c(C)c1C | ? | -7% |
| CCC(C)NS(=O)(=O)c1ccc(S(=O)(=O)N2CC=C(c3ccc(F)cc3)CC2)cc1 (stereo not given) | -27% | -24% |
| S=C(NCC1CCCCC1)Nc1ccc(Oc2ccccc2)cc1 | -10% | -9% |
| CC(C)C(C)(NC(=O)c1cccn(Cc2ccc3c(c2)OC(F)(F)O3)c1=O)C(N)=O (stereo not given) | -12% | -17% |
| Cc1ccc2c(c1)N(C(=O)CCC(=O)NCc1cccnc1)CC(C)O2 (stereo not given) | -15% | -8% |
| CCC[C@@H]1CCCO[C@@](C(=O)NCc2cc(C)n(C)n2)(C(F)(F)F)C1 | 0% | -19% |
| CCc1ccccc1NC(=O)Cn1c(=O)n(CCc2ccccc2)c(=O)c2ccccc21 | -9% | 2% |
| COC(=O)c1ccc(CO/N=C(\NC(C)=O)c2nonc2NC(C)=O)cc1 | i | -2% |
| CC1CC(C)(C)NC(=S)N1CCC(=O)Nc1ccc2c(c1)OCCO2 (stereo not given) | ? | ? |
| O=[N+]([O-])C1=CC=C2C(=NC3(CCCCC3)N2O)C1=NCCc1ccccc1 | -3% | -7% |
| CCCCCCCCCCCCCCC(C(=O)OC)C(O)(CC(=O)OC)C(=O)OC (stereo not given) | -21% | -17% |
| CC[C@H](C)[C@H]1CNC(=S)N1CC1CCN(CC)CC1 | i | -18% |
| CC(=O)N1CCN(S(=O)(=O)c2ccc(C)c([N+](=O)[O-])c2)C1C(C)C (stereo not given) | i | 2% |
| C/C(=N\Nc1ccc(Cl)cc1)c1c(O)cc(C)oc1=O | -14% | 1% |
| Cc1c(CCC(=O)NCCCn2ccnc2)c(=O)oc2cc3oc4c(c3cc12)CCCC4 | -19% | ? |
| CCCNc1nc(-c2ccccc2)c(C(=O)OCC)cc1C#N | nt | ? |
| CN(CC(=O)Nc1ccccc1Br)C(=O)c1n[nH]c2ccccc12 | -30% | -27% |
| COc1cc(C(=O)N2CCN(C(=O)Cc3ccccc3)CC2)cc(OC)c1OC | nt | 9% |
| CC(=O)N1CCN(C(=O)C2(NC(=O)Nc3ccccc3Cl)CCCCC2)CC1 | -5% | -7% |
| O=C(Nc1ccc(Br)cn1)c1ccc([N+](=O)[O-])o1 | ? | -18% |
| Fc1cccc(CSc2ccc3nnc(-c4ccccn4)n3n2)c1 | ? | -16% |
| Cc1cccc(NC(=S)N2CCN(c3cc(C)ccc3C)CC2)c1 | -18% | -21% |
| Cc1cc2c(NC(=O)CCCC(=O)O)cccc2nn1 | -18% | -15% |
| Cc1ccc(N=Cc2ccc(N(C)C)cc2)cc1 | nt | 3.5µM* |
| N=c1c2c(n(Cc3ccc(Cl)c(Cl)c3)c3c1CCC3)CCCC2 | nt | ? |
| COc1cc(/C=C/C(=O)NC(C)(C)C)ccc1OCc1ccccc1 | i | -26% |

Compound activity: PubChem BioAssay, National Center for Advancing Translational Sciences (NCATS)
